miR-21 reporter: miR-21 reporter, rising signal; HeLa miR-21 FLuc reporter, luciferase, 48 h; Potency, µM (top dose mostly 38.3 µM), for the others: at the top dose reporter change, positive = more light; 340,000 tested, under 10 active; AID 2288; active = well fitted rising curve with a large enough effect; inconclusive = small, poorly fitted or top-dose-only effect; inactive = no such curve, though single readings can be large or run the other way;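 note: % of control where 0% means no effect; miR-21 action dims this reporter so a rising signal means less miR-21 action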
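HeLa cells endogenously expressing miR-21, stably carrying CMV-driven firefly luciferase with a downstream miR-21 binding site, 2000 cells/well. Titrations up to approximately 40 uM, 48 hours; luciferase luminescence read.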
GLA inh pH 4.5: blocks human alpha-galactosidase A at pH 4.5 | P06280 | purified enzyme, 4-MU-alpha-Gal fluorescence, pH 4.5 | activity change, negative = inhibition, % at 105 µM | 230,000 tested, under 10 active | AID 1467; inconclusive = small, poorly fitted or top-dose-only inhibition, or a rising curve; inactive = flat fitted curve, though single readings scatter; no compound was filed as active;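 note: 0% = full activity with enzyme and -100% = basal without enzyme; dose as in the result columns while the protocol names 77 µM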
Target sequence (P06280 whole entry, looked up): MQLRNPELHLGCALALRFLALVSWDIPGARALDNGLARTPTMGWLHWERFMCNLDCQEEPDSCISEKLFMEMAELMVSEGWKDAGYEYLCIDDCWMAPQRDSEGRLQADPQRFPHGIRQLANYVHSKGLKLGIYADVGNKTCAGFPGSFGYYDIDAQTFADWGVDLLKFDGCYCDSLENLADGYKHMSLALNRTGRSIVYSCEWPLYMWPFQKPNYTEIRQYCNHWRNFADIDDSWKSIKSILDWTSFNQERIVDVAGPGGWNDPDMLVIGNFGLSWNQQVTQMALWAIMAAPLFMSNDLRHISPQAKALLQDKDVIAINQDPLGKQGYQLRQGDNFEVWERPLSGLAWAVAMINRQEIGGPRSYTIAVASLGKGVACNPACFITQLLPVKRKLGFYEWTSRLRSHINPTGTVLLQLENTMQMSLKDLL
Rango-impB inh: Rango-importin beta binding inhibition; Rango CFP/YFP FRET sensor + importin beta, 45 min; Potency, µM (top dose mostly 92.2 µM), without a hit: at the highest dose inhibition of complex formation; 340,000 tested, 0.031% active; active = rising FRET ratio curve, often small or poorly fitted; inconclusive = mostly compound fluorescence or quenching in the first reads; inactive = flat curves in all reads;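 note: potency is the fitted concentration of half-maximal effect; 0% = DMSO wells and 100% = buffer wells lacking importin beta; nearly all actives have a fitted effect of over 15% in size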
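FRET biosensor (snurportin 1 IBB flanked by EYFP and cerulean), 50 nM, with compound 5 min, then 0.125 microM importin beta in PBS, 1 mM DTT, 0.02% Tween-20, 0.1% BSA. CFP/YFP ratio read after 45 min at room temperature; pre-read flags interference.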
Rango dissoc inh: prevents RanGTP from dissociating the Rango-importin beta complex; Biochemical FRET Rango-importin beta, RanGTP-induced dissociation; Potency, µM (top dose mostly 46.1 µM), for the others: at the top dose activity change, negative = inhibition; O95149+P62826; 340,000 tested, 0.071% active; active means falling FRET ratio curve, often poorly fitted, with flat reads before Ran was added; inconclusive means other falling curves, or compound fluorescence or quenching; inactive means flat or rising ratio curve;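 note: potency is the fitted concentration of half-maximal effect; % of control where 0% means no effect; nearly all actives have a fitted effect of over 45% in size; -100% = wells without RanGTP and RCC1; the record marks most hits as doubtful in a second field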
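Rango FRET biosensor (snurportin-1 IBB flanked by N-terminal EYFP and C-terminal CFP10) at 0.1 uM, with 0.25 uM importin beta in PBS, 1mM DTT, 0.02% Tween-20, 0.1% BSA. 0.6 uM Ran, 2mM GTP and 0.2 uM RCC1 were then added for 45 min at room temperature. Inhibition read as loss of FRET rise.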
* marks the source's active call; other numbers are inactive results; u = inconclusive; x = not tested or not shown; & = joins results of further samples. Not all compounds are listed; rates above refer to the full screens.

SMILES	miR-21 reporter	GLA inh pH 4.5	Rango-impB inh	Rango dissoc inh
COc1ccc(CN2CCC(Cc3ccccc3)CC2)c(C)c1C	6%	x	1.5%	4%
CC(C)NC(=O)C1CCCN(S(=O)(=O)c2ccc(-n3cnnn3)cc2)C1 (configuration not stated)	2%	-1	-2.4%	-11%
CN1CCN(c2ccc(-c3cccc(NC(=O)COc4ccccc4)c3)nn2)CC1	x	x	-0.8%	17%
CC1(C)NC(C)(C)c2nonc2/C1=N\O	-2%	-1	u	-17%
O=C(NCCc1ccc(C(F)(F)F)cc1)c1ccc(Cl)nc1	8%	x	-1.5%	0%
Nc1nonc1-n1nnc(C(=O)c2ccccc2)c1-c1ccccc1	0%	-9	-1.1%	0%
CCOC(=O)c1c(C)[nH]c(C(=O)COC(=O)Cn2cc(C(F)(F)F)ccc2=O)c1C	x	x	3.8%	-1%
O=C(N/N=C/C(Br)=C/c1ccccc1)C(O)c1ccccc1 (configuration not stated)	-29%	1	4.2%	11%
Cc1cc(/C=N/NC(=O)c2nn(C)cc2Cl)c(C)n1-c1cccc(Br)c1	-45%	-3	3.5%	15%
CC(=O)Nc1ccc(C2NC(=S)N(c3ccccc3C(F)(F)F)C(C)=C2C(=O)N2CCOCC2)cc1 (configuration not stated)	-3%	-20	-0.7%	-7%
CCOC(=O)c1nnn2c1nc(N(CC)CC)c1ccccc12	-4%	-2	0.2%	11%
CC(=O)NC(=S)Nc1cccc([N+](=O)[O-])c1	-1%	5	-0.5%	9%
CCOC(=O)c1cn2nc(Oc3ccc(C(=O)OC)cc3)ccc2n1	2%	-4	0.8%	-16%
CC(Oc1ccccc1)C(=O)Nc1cccc(F)c1 (configuration not stated)	-6%	-12	-3.3%	6%
O=C(CC1Oc2ccccc2NC1=O)NC1CC1 (configuration not stated)	-5%	-6	x	x
O=C(c1ccccc1)N1N=C(c2ccccc2)CC1c1ccccc1O (configuration not stated)	7%	-12	0.2%	11%
CCN1C/C(=C\c2cccc(C)c2)c2nc3ccccc3c(C(=O)O)c2C1	-2%	11	x	x
CCN(CC(=O)Nc1ccc(NC(C)=O)cc1)C(=O)c1c(C)nn(Cc2ccc(C)cc2)c1Cl	x	x	4.5%	3%
CSc1nc2ccc(NC(=O)NC(=O)c3c(F)cccc3F)cc2s1	-14%	2	-0.2%	-22%
COc1ccc(NC(=S)N(CCCN2CCOCC2)C(C)c2cc3cccc(OC)c3o2)cc1 (configuration not stated)	-10%	-27	-4.9%	-13%
Cc1ccc(NC(=O)CCC(=O)N/N=C/c2ccc(O)cc2O)cc1	15%	x	4.4%	0%
COc1cc(OC)c(OC)cc1/C=N/n1c(C)nc2ccccc2c1=O	2%	x	0.3%	-10%
O=C(O)CN1C(=O)/C(=C/c2ccc(SCc3ccccc3)o2)SC1=S	25%	-6	u	u
CCc1nc(SCC(=O)Nc2ccc(N(C)C)cc2)c2ccccc2n1	17%	-2	-0.3%	-3%
COc1ccc2c(CC(=O)N3CCc4cc(OC)c(OC)cc4C3)coc2c1	-20%	x	0.8%	0%
CCC1CCc2c(sc(NC(=O)c3ccco3)c2C(N)=O)C1 (configuration not stated)	-45%	-23	u	-12%
C#CCOCCOCCOCCNc1nc(N2CCN(C(=O)CCCCCCCCCCNC(=O)Cn3cc(C[C@@H](C)O)nn3)CC2)nc(N2CCN(C(=O)CCCCCCCCCCNC(=O)[C@H](CCCCN)n3cc(CCCC(=O)O)nn3)CC2)n1	x	x	-0.3%	6%
CCOC(=O)c1c(NC(=O)CSc2nc3c(c(=O)n(C)c(=O)n3C)n2C(C)C)sc(C)c1C	-4%	-2	0.1%	11%
COc1cc(/C=C/C(=O)OCC(=O)c2ccc[nH]2)cc(OC)c1OC	x	x	0.1%	-7%
COc1cccc2sc(N(CCCN(C)C)C(=O)CCS(=O)(=O)c3ccccc3)nc12	u	x	0.0%	-8%
Cc1c(NS(=O)(=O)c2ccc(N(C)C3CCCCC3)c([N+](=O)[O-])c2)c(=O)n(-c2ccccc2)n1C	0%	1	-3.4%	4%
Cc1ccc(N(CC(=O)NC2CCCCC2)C(=O)CCCC(=O)Nc2ccccn2)cc1	1%	x	-0.8%	-3%
COC(=O)c1cc(NC(=O)CC2Oc3ccccc3NC2=O)cc(C(=O)OC)c1 (configuration not stated)	7%	x	-1.7%	-21%
COc1cccc(CCC(=O)N(C)C2CCCN(Cc3ccccc3F)C2)c1 (configuration not stated)	-3%	x	5.5%	47%
Nc1nnc(SCc2c(F)cccc2Cl)s1	-28%	-11	-1.0%	9%
O=C1CC[C@H](O)CCN1CCSc1ccc(Br)cc1	x	x	-1.4%	11%
COc1ccc(CCCC(=O)N/N=C/c2cccc(OC)c2O)cc1C	27%	-2	-4.2%	-16%
C=CCNC(=S)Nc1sc2c(c1C(=O)OCC)CCN(C(=O)OCC)C2	-11%	7	1.9%	-7%
O=C1CC(=O)C(n2cncn2)C(c2ccc(Cl)cc2Cl)C1 (configuration not stated)	3%	-1	-0.8%	11%
CC(C)NC(=O)c1ccccc1NS(=O)(=O)c1ccc(Br)s1	18%	x	-1.3%	-18%
CCOC(=O)[C@H]1[C@H]2COc3cc(OC)ccc3[C@@H]2N2C(=O)N(c3cccc(Cl)c3)C(=O)[C@@]12C	14%	x	-1.7%	0%
C=CCn1cc(C(=O)OC)c(=O)c2cc(S(=O)(=O)N3CCCCCC3)ccc21	6%	-3	4.7%	0%
CCCC(C)C(=O)Nc1ccc(C(N)=O)cc1 (configuration not stated)	-4%	2	3.2%	-14%
O=C(CN1CCCCC1)NNC(=O)c1ccc([N+](=O)[O-])cc1	-2%	x	-2.1%	-8%
Cc1cccc(-n2c(C)cc(/C=N/O)c2C)c1	-16%	-1	0.9%	-5%
Cc1ccccc1SCC(=O)NC1CCOC1=O (configuration not stated)	-1%	-10	0.1%	3%
[N-]=[N+]=NC1c2ccccc2C(=O)N1Cc1ccccc1 (configuration not stated)	-5%	x	-1.0%	-21%
O=C(CN1CCN(Cc2ccccc2)CC1)Nc1cccc(S(=O)(=O)N2CCCCCC2)c1	20%	-4	-1.7%	-5%
Cc1cccc(C)c1NC(=O)CSc1nc(N2CCOCC2)nc(N2CCOCC2)n1	-1%	x	-0.9%	12%
CCO[C@H]1OC(C(=O)NC2CC2)=C[C@@H](C)[C@@H]1CCCO	-1%	0	-0.1%	0%
Following part
SMILES	miR-21 reporter	GLA inh pH 4.5	Rango-impB inh	Rango dissoc inh
CS(=O)(=O)Nc1ccc(-c2ccc(/C=C3\SC(N)=NC3=O)o2)cc1	11%	x	u	u
C[C@H](NC(=O)OC(C)(C)C)c1nnc(SCC(=O)Nc2ccc(Br)cc2)o1	-6%	-1	0.1%	8%
O=[N+]([O-])c1ccc2nc(SCc3cn4ccccc4n3)[nH]c2c1	-86%	2	-3.5%	1%
COc1ccc(N2CC(O)=C(c3nc(-c4ccc(Cl)cc4)cs3)C2=N)cc1	-6%	3	1.3%	22%
CN(C(=O)COC(=O)Cn1cnc2ccccc21)C1CCCCC1	x	x	-1.1%	-13%
COc1ccc(Br)cc1-c1noc(-c2ccncc2)n1	-3%	-4	0.5%	-5%
COc1ccc(-c2nn(-c3ccccc3)cc2/C=C/C(=O)N2CCOCC2)cc1OC	2%	0	-0.2%	-5%
O=[N+]([O-])c1ccc(S(=O)(=O)c2ccccc2)nc1	u	x	-2.9%	-1%
COc1ccc2c(c1)NC1(O)c3ccccc3C(=O)C21O (configuration not stated)	-7%	-21	-3.7%	-4%
O=C(O)c1cnc(-c2ccccc2)nc1Oc1ccc(Cl)cc1	-3%	-12	-4.8%	3%
Cc1cccc(-c2nc3c(c(SCC(=O)N4CCOCC4)n2)CCCC3)c1	-3%	-2	-0.7%	-9%
COC(=O)C1CCN(C(=O)COC(=O)c2ccc(OC)c(S(=O)(=O)N3CCCc4ccccc43)c2)CC1	-12%	-9	6.6%	-11%
O=C(CNCc1ccccc1)NC1C2CC3CC(C2)CC1C3 (configuration not stated)	-51%	x	-3.9%	-2%
CCN(CC)c1ccc(C(=C2C=CC(=[N+](CC)CC)C=C2)c2ccccc2)cc1	x	x	6.0%	18%
N#CC1(C(N)=O)OC12CCS(=O)(=O)c1ccccc12 (configuration not stated)	x	x	0.5%	-2%
Cc1cccc(-c2nnc(NC(=O)c3cccs3)s2)c1	-41%	4	3.7%	u
Cc1ccccc1N1C(=O)c2ccccc2C1O (configuration not stated)	0%	x	0.2%	-9%
N=c1c2c(-c3ccccc3)c(-c3ccccc3)n(Cc3ccco3)c2ncn1CCCN1CCOCC1	11%	-12	u	u
CC(/C=N/NC(=O)c1cc(-c2ccccc2)nc2ccccc12)=C\c1ccco1	17%	-5	u	-22%
CCn1c(Cc2ccccc2)nnc1SCC(=O)Nc1ccc(N)cc1	-3%	0	-4.2%	0%

Nothing new here: 3 of the compounds above.
SMILES	miR-21 reporter	GLA inh pH 4.5	Rango-impB inh	Rango dissoc inh
CCC1CCc2c(sc(NC(=O)c3ccco3)c2C(N)=O)C1 (configuration not stated)	-45%	-23	u	-12%
C#CCOCCOCCOCCNc1nc(N2CCN(C(=O)CCCCCCCCCCNC(=O)Cn3cc(C[C@@H](C)O)nn3)CC2)nc(N2CCN(C(=O)CCCCCCCCCCNC(=O)[C@H](CCCCN)n3cc(CCCC(=O)O)nn3)CC2)n1	x	x	-0.3%	6%
CCOC(=O)c1c(NC(=O)CSc2nc3c(c(=O)n(C)c(=O)n3C)n2C(C)C)sc(C)c1C	-4%	-2	0.1%	11%

Further compounds follow.
SMILES	miR-21 reporter	GLA inh pH 4.5	Rango-impB inh	Rango dissoc inh
COc1ccc(-c2nc3ccc(C)cn3c2NCc2ccccc2)cc1SC1CCCCC1	x	x	u	u
CCc1ccc(NC(=O)C2CCCN2S(=O)(=O)c2ccc3c(c2)n(C)c(=O)c(=O)n3C)cc1 (configuration not stated)	4%&-4%	-3	-1.2%	0%
CC(=O)N/C(=C/c1ccccc1)C(=O)NCCO	-4%	-2	5.8%	-8%
Cc1cc(C)c(C)c(OCC(=O)NCc2nc(-c3ccccc3)no2)c1	-5%	-3	-0.9%	-3%
CCc1cc2c(=O)n(-c3ccccc3)c(SCC(=O)O)nc2s1	0%	x	2.3%	-1%
O=C(O)c1ccccc1Nc1ccc2nonc2c1[N+](=O)[O-]	4%	x	-1.2%	4%
CN(C(=O)COC(=O)Cc1c(Cl)cccc1Cl)c1c(N)n(Cc2ccccc2)c(=O)[nH]c1=O	x	x	-0.4%	1%
COc1ccccc1NC(=O)N1CCN(c2ccccc2F)CC1	-12%	3	-1.1%	u
CCC(OC(=O)c1cccs1)C(=O)NCc1ccc(C)cc1 (configuration not stated)	-3%	-10	0.1%	-3%
Cc1c(N)c(=O)n(-c2ccccc2)n1C	x	5&-3	-2.6%	-7%
O=C(CCSCCC(=O)NCc1ccco1)NCc1ccco1	-6%	-2	4.2%	-10%
CC(C)C(=O)NC(c1ccco1)c1c(O)ccc2ccccc12 (configuration not stated)	-3%	7	-0.5%	8%
O=C(NNC(=O)c1ccncc1)Nc1ccc(Br)cc1	x	x	-0.3%	-10%
COc1ccc(N2CC(O)=C(c3nc4ccccc4s3)C2=N)cc1	-19%	-1	-0.7%	-11%
COc1ccc(N2C(=O)CC(N3CCN(c4ccccc4OC)CC3)C2=O)cc1 (configuration not stated)	-19%	x	3.9%	5%
CNC(=O)COc1ncnc2sccc12	-4%	7	-0.5%	1%
O=C(NCCC1=CCCCC1)C1CCN(S(=O)(=O)c2cnc[nH]2)CC1	-11%	-10	-1.8%	1%
CCc1nnc(NC(=O)C2CCN(c3nc(C)cc(C)n3)CC2)s1	-4%	2	-0.1%	11%
O=C(NC1CC1)c1c[nH]c2ccc(S(=O)(=O)Nc3cccc(C(F)(F)F)c3)cc2c1=O	-1%	4	-0.9%	15%
O=C(NC(=O)c1c(F)cccc1F)Nc1ccccc1SC(F)F	-21%	-1	0.3%	-6%
CC(C)Oc1ccc(C(=O)NC2CCN(Cc3ccccc3)CC2)cc1	3%	x	0.0%	-7%
COC(=O)c1cc(NC(=O)CN(C)C2CCS(=O)(=O)C2)cc(C(=O)OC)c1 (configuration not stated)	x	x	3.1%	-6%
